Bm FixLJ act: increases Burkholderia fixLJ two-component signaling. z-score (no concentration beside the values). actives 0.3% (n = 29,000). B. multivorans fixK-promoter GFP reporter, 18 h; stronger effect = higher value;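 active = replicate mean overnight rise in green fluorescent reporter signal, 3 or more SD over negative controls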;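 also: score is relative to vehicle wells of the plate; 300 nL library stock went into each well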
Starred values were filed as active, the others as inactive. An excerpt; count on the stated rates, not on these rows.

1	Cc1cc(C)c(C)c(OCC(=O)Nc2ccc(S(=O)(=O)Nc3nc(C)cc(C)n3)cc2)c1
  Bm FixLJ act = -3.3

2	Cc1ccc(NC(=O)CCc2c(C)nc3ncnn3c2C)cc1Cl
  Bm FixLJ act = -0.59

3	CCCN1C(=O)c2[nH]nc(-c3cccc(OC)c3)c2C1c1ccccn1 (stereo not drawn)
  Bm FixLJ act = 0.64

4	Cn1ccnc1SCCNC(=O)C1CCCc2c1[nH]c1ccccc21 (stereo not drawn)
  Bm FixLJ act = 0.94

5	CCOc1ccc(NC(=O)NCCN2CCN(c3cccc(C)c3C)CC2)cc1
  Bm FixLJ act = -0.44

6	CCC(=O)N1CCc2cc(Br)cc(S(=O)(=O)N3CCCC(C(=O)Nc4ccc(CC)cc4)C3)c21 (stereo not drawn)
  Bm FixLJ act = -0.56

7	CCC(=O)N1CCCC1C(=O)N1CCc2nc[nH]c(=O)c2C1 (stereo not drawn)
  Bm FixLJ act = -0.22

8	Cc1cccc(C)c1NC(=O)Cn1nnc(S(=O)(=O)c2ccccc2)c1N
  Bm FixLJ act = -1.7

9	CCOCCCn1c(=N)c(C(=O)NC(C)c2ccccc2)cc2c(=O)n3cc(C)ccc3nc21 (stereo not drawn)
  Bm FixLJ act = -2.5

10	Cn1nc(-c2ccccc2F)c2cc(C(=O)NCc3ccc(Cl)cc3)sc21
  Bm FixLJ act = 0.04

11	CCSCC(=O)N1CC[C@]2(OC)CCC(Oc3ccccn3)CC12 (stereo partly drawn)
  Bm FixLJ act = -0.79

12	O=C(Cn1c(=O)n(Cc2ccc(F)cc2)c(=O)c2sc3ccccc3c21)NCc1ccccc1Cl
  Bm FixLJ act = -0.27

13	CCN(CC)CCNC(=O)Cn1ncc2c3ccccc3n(Cc3ccccc3C)c2c1=O
  Bm FixLJ act = -1.7

14	CCc1ccc(S(=O)(=O)c2c[nH]c3cc(OC)c(OC)cc3c2=O)cc1
  Bm FixLJ act = -2.1

15	CN(C)S(=O)(=O)CC1CN(C(=O)CCn2cnc3ccccc32)CC1O (stereo not drawn)
  Bm FixLJ act = -0.66

From compound 14 up to 15, copied from above:
14	CCc1ccc(S(=O)(=O)c2c[nH]c3cc(OC)c(OC)cc3c2=O)cc1
  Bm FixLJ act = -2.1

15	CN(C)S(=O)(=O)CC1CN(C(=O)CCn2cnc3ccccc32)CC1O (stereo not drawn)
  Bm FixLJ act = -0.66

Next part
16	Cc1ccc(S(=O)(=O)N2CCC(C(=O)Nc3ccc(C)c(Cl)c3)CC2)cc1
  Bm FixLJ act = 1.1

17	COc1cc(NS(=O)(=O)c2ccc(NC(=O)c3ccc(Cl)cc3Cl)cc2)nc(OC)n1
  Bm FixLJ act = -1.4

18	COc1ccc(Cl)cc1NC(=O)[C@H]1O[C@@H]2OC(C)(C)O[C@@H]2[C@H]2OC(C)(C)O[C@H]21
  Bm FixLJ act = -1.4

19	Cc1c2cnn(-c3ccccc3)c(=O)c2c(C)n1CCCC(=O)Nc1ccc(F)cc1F
  Bm FixLJ act = -1.8

20	COc1ccc(/C=C\c2onc(C)c2S(=O)(=O)N2CCC(C(=O)Nc3ccc(C)cc3C)CC2)cc1
  Bm FixLJ act = -1.8

21	CCOc1ccc(NC(=O)CS(=O)(=O)Cc2nc(-c3ccc(C)cc3)oc2C)cc1
  Bm FixLJ act = -0.72

22	COC(=O)c1cc2occc2n1Cc1nc(-c2ccc(Cl)cc2)oc1C
  Bm FixLJ act = -0.09

23	COc1ccc(-n2ncc3c2ncn2nc(Cc4ccccc4)nc32)cc1
  Bm FixLJ act = -0.63

24	COc1ccc(-n2c(-c3ccc(F)cc3)cn3c4c(=O)n(C)c(=O)n(C)c4nc23)cc1
  Bm FixLJ act = -1.5

25	Cc1ccccc1OCCn1c(=N)n(C(C)C)c2ccccc21
  Bm FixLJ act = -0.36

26	O=C(c1ccccc1)n1nc(-c2ccco2)nc1NCc1cccs1
  Bm FixLJ act = -1.8

27	Cc1sc2ncnc(N3CC[C@@]4(CO)CCCN(C)[C@@H]4C3)c2c1C
  Bm FixLJ act = -1.1

28	COc1ccc(CNC(=O)C2CCN(S(=O)(=O)c3ccc(F)cc3)CC2)cc1
  Bm FixLJ act = -0.18

29	CC(=O)c1cccc(NC(=O)[C@H]2O[C@@H]3OC(C)(C)O[C@@H]3[C@H]3OC(C)(C)O[C@H]32)c1
  Bm FixLJ act = -0.79

30	CCOc1ccc(N(C(=O)c2ccc(Cl)cc2)S(=O)(=O)c2ccc3c(c2)n(C)c(=O)n3C)cc1
  Bm FixLJ act = -0.35

31	COc1cccc(NC(=O)c2cc3c(-c4ccc(Cl)cc4)nn(C)c3s2)c1
  Bm FixLJ act = 2.2

32	O=C(NCCCCc1ccccc1)c1nn(-c2ccccc2F)nc1CO
  Bm FixLJ act = -0.52

33	COCC(=O)N1CCCN(C(=O)CSc2ccncc2)CC1
  Bm FixLJ act = 1.3

34	Cc1cccc(OCCCCn2c(C3CC(=O)N(c4ccc(C)cc4C)C3)nc3ccccc32)c1 (stereo not drawn)
  Bm FixLJ act = -0.44

35	Cc1ccccc1NC(=O)c1cc2c(-c3ccccc3)nn(-c3ccccc3)c2s1
  Bm FixLJ act = -1.3

36	COc1ccc(S(=O)(=O)c2c(Nc3cccc(Cl)c3)sc(C(=O)c3ccccc3)c2N)cc1
  Bm FixLJ act = -1.5

37	c1cnc(Sc2ccc(CN3CCCC3Cn3cccn3)o2)nc1 (stereo not drawn)
  Bm FixLJ act = 2

38	Cc1ccc(C(=O)Oc2cc(-c3ccc4c(c3)OCO4)cc(=O)c3c(C)oc(C)c23)cc1
  Bm FixLJ act = 0.92

39	Cc1c(NC(=O)Nc2ccccc2C(F)(F)F)c(=O)n(-c2ccccc2)n1C
  Bm FixLJ act = 0.25

40	Cc1cc(Cl)ccc1C(=O)N1CCC(O)[C@@]2(CCCNC2=O)C1 (stereo partly drawn)
  Bm FixLJ act = 0.73

41	COc1nc2c(cc1CNC(C)CC(C)C)C(=O)N(C1CCCC1)C2 (stereo not drawn)
  Bm FixLJ act = -3.2

42	CC(C)(C)c1cc(C(=O)NCc2nc(-c3ccncc3)n[nH]2)nc(=O)[nH]1
  Bm FixLJ act = -0.16

43	CCOc1ccc(N(C)C(CNS(=O)(=O)c2ccccc2)c2ccccc2)cc1 (stereo not drawn)
  Bm FixLJ act = -1.2

44	CC(C)NC(=O)CCc1cc2n(n1)CCCN(C(=O)c1cccc(Cl)c1)C2
  Bm FixLJ act = -1.8

45	CNc1nc(C(=O)N2CCCN(C(=O)c3ccc(Cl)cn3)CC2)cs1
  Bm FixLJ act = 0.85

46	O=C(c1onc2c1CCCC2)N1CCN(c2nsc3ccccc23)CC1
  Bm FixLJ act = -1.2

47	Cc1nc2c(-c3ccccc3)c(C)nn2c(C)c1CCC(=O)N1CCN(c2ccc(F)cc2)CC1
  Bm FixLJ act = -0.5

48	Cc1ccc(C)c(Cn2c(=O)n(Cc3ccccc3)c(=O)c3c(C)c(C)sc32)c1
  Bm FixLJ act = -1.1

49	COc1ccc(NS(=O)(=O)c2ccc3c(c2)oc(=O)n3C)cc1Cl
  Bm FixLJ act = -0.56

50	CC1=Nc2cc(C(=O)NCCc3ccccc3)ccc2Sc2c(C)ccc(C)c21
  Bm FixLJ act = 0.68

51	O=C(Cn1nccc1C1CCCNC1)NC12CC3CC(CC(C3)C1)C2 (stereo not drawn)
  Bm FixLJ act = -0.46

52	Cc1ccc2c(c1)-c1c(cnn1CC(=O)Nc1ccccc1C#N)CO2
  Bm FixLJ act = 1.2

53	CCc1ccc(N(CC)C(=O)c2cn(C)c(=O)c3cc(OC)c(OC)cc23)cc1
  Bm FixLJ act = -0.82

54	COC(=O)C1[C@H]2C[C@H]3c4[nH]c5ccccc5c4CCN3C[C@@H]2CC[C@@H]1O (stereo partly drawn)
  Bm FixLJ act = -1.1

55	COc1cc(OC)cc(-c2cc3nc(C)c(CCC(=O)NCc4ccc(Cl)cc4)c(C)n3n2)c1
  Bm FixLJ act = 0.36

56	CCC12CN3CC(CC)(CN(C1)C3c1cc(Br)ccc1OC)C2=O (stereo not drawn)
  Bm FixLJ act = -1.1

57	COCCNC(=O)c1c[nH]c2ccc(S(=O)(=O)Nc3ccc(F)cc3F)cc2c1=O
  Bm FixLJ act = 0.11

58	COc1ccccc1N1CCN(C(=O)Cn2ncc3c(=O)oc4ccccc4c32)CC1
  Bm FixLJ act = -2.2

59	COc1ccc(N2CCN(c3oc(/C=C/c4cccc(OC)c4)nc3C#N)CC2)cc1
  Bm FixLJ act = -1.8

60	Cc1cc(C)cc(Nc2cc(C(=O)NC3CCCCC3)c3ccccc3n2)c1
  Bm FixLJ act = 0.51

61	CCOC(=O)C1=C(CN2CCC(C)CC2)NC(=O)NC1c1ccc(OC(C)C)cc1 (stereo not drawn)
  Bm FixLJ act = -2.1

62	COc1cccc(CNC(=O)c2nnc(Cc3ccc(Cl)cc3)o2)c1
  Bm FixLJ act = -0.27

63	CN(C(=O)CC(=O)Nc1ccc2nc3n(c(=O)c2c1)CCCCC3)c1ccccc1F
  Bm FixLJ act = -1

64	COC(=O)c1ccc(OC)c(Cn2c(=O)n(-c3cccc(Cl)c3)c(=O)c3c2c2cc(C)ccc2n3C)c1
  Bm FixLJ act = -1.2

65	CCOC(=O)c1c(NC(=O)c2cc3ccccc3c(=O)o2)sc2c1CCC(C(C)(C)C)C2 (stereo not drawn)
  Bm FixLJ act = -1.7

66	COc1ccc(-c2noc(CSc3nnc(Cc4ccccc4)n3-c3cccc(C)c3)n2)cc1
  Bm FixLJ act = -0.67

67	C=CCOc1cccc(CN2CC(O)C(Cc3cc(C)[nH]n3)C2)c1 (stereo not drawn)
  Bm FixLJ act = -0.19

68	Cc1coc2cc3oc(=O)c(CC(=O)NCCc4ccccc4F)c(C)c3cc12
  Bm FixLJ act = -1.4

69	O=C(Cn1cc(C(=O)c2ccco2)c2ccccc21)Nc1ccccc1
  Bm FixLJ act = -2.7

70	Cc1ccc(NC(=O)CCS(=O)(=O)c2cccc3nonc23)cc1Cl
  Bm FixLJ act = -1.7

71	O=C(COc1ccccc1Cl)N(Cc1cccc(F)c1)C1CCS(=O)(=O)C1 (stereo not drawn)
  Bm FixLJ act = -1.1

72	CCOC(=O)c1c(C)oc2ncnc(N3CCN(c4cccc(Cl)c4)CC3)c12
  Bm FixLJ act = 2

73	Cc1cc(C)n(CCCN(C)C(=O)Nc2ccnn2C2CCCC2)n1
  Bm FixLJ act = -0.86

74	C[C@]12C=CC(=O)C=C1CCC1C2[C@@H](O)C[C@@]2(C)C1CC[C@]2(O)C(=O)CO (stereo partly drawn)
  Bm FixLJ act = -1.2

75	COc1ccc(-n2c(Cc3ccccc3)nnc2SCc2nc(-c3ccccc3C)no2)cc1
  Bm FixLJ act = -1.4

76	CCCCN(C)CCCNC(=O)CN1C(=O)COc2ccc(S(=O)(=O)N3CCOCC3)cc21
  Bm FixLJ act = -0.09

77	Cc1cccn2cc(-c3cccc(NC(=O)C(C)C)c3)nc12
  Bm FixLJ act = -1.8

78	Cc1ncccc1OC1(C(=O)N2CCc3sccc3C2)CCNCC1
  Bm FixLJ act = -0.2

79	CCCC(=O)Nc1cc2nn(-c3ccc(OC)cc3)nc2cc1C
  Bm FixLJ act = -2.5

80	O=C(NC1CCC(NC(=O)c2cccc3c2OCCO3)C1)c1ccncc1F (stereo not drawn)
  Bm FixLJ act = 0.01

81	O=C(CCc1cc(Cl)no1)N1CCN(Cc2ccccc2CO)CC1
  Bm FixLJ act = -2.6

82	Cc1cc(NS(=O)(=O)c2ccc(N)cc2)no1
  Bm FixLJ act = -3.7

83	O=C(COCc1ccccc1)N1C[C@H]2COCC[C@@]2(O)[C@@H]2COCC[C@H]21
  Bm FixLJ act = 0.39

84	Cc1ccc(Cl)cc1N1CCN(C(=O)CSc2cc(=O)n(C)c3ccccc23)CC1
  Bm FixLJ act = -0.01

85	COc1cccc(-n2c(/C=C/c3ccccc3O)nc3ccccc3c2=O)c1
  Bm FixLJ act = 0.2

86	COc1cc2c(-c3cc(Br)ccc3O)nc3c(c(C)nn3-c3ccccc3)c2cc1OC
  Bm FixLJ act = -0.27

87	Cc1ccc(Cl)cc1N1CCN(C(=O)C2CCN(Cc3nc(-c4cccc(Cl)c4)oc3C)CC2)CC1
  Bm FixLJ act = -1.2

Five records drawn at random from the list so far:
79	CCCC(=O)Nc1cc2nn(-c3ccc(OC)cc3)nc2cc1C
  Bm FixLJ act = -2.5

87	Cc1ccc(Cl)cc1N1CCN(C(=O)C2CCN(Cc3nc(-c4cccc(Cl)c4)oc3C)CC2)CC1
  Bm FixLJ act = -1.2

85	COc1cccc(-n2c(/C=C/c3ccccc3O)nc3ccccc3c2=O)c1
  Bm FixLJ act = 0.2

82	Cc1cc(NS(=O)(=O)c2ccc(N)cc2)no1
  Bm FixLJ act = -3.7

83	O=C(COCc1ccccc1)N1C[C@H]2COCC[C@@]2(O)[C@@H]2COCC[C@H]21
  Bm FixLJ act = 0.39

Some of the entries above, reformatted.
entry	compound	Bm FixLJ act
77	Cc1cccn2cc(-c3cccc(NC(=O)C(C)C)c3)nc12	-1.8
78	Cc1ncccc1OC1(C(=O)N2CCc3sccc3C2)CCNCC1	-0.2
79	CCCC(=O)Nc1cc2nn(-c3ccc(OC)cc3)nc2cc1C	-2.5
80	O=C(NC1CCC(NC(=O)c2cccc3c2OCCO3)C1)c1ccncc1F (stereo not drawn)	0.01
